# MT1-MMP promoter = inhibitors of MT1-MMP promoter transcription, cell-based, luciferase reporter, luminescence (AID 618); MT1-MMP promoter luciferase reporter cells, luminescence; calls from a first round at 10 µM; hits with a dose series show EC50 in µM; 87,000 compounds, 0.62% hits;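 active means over half of the reporter light lost at 10 µM or EC50 under 50 µM; inactive means the rest and hits that failed the dose series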;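 further: actives suppress MT1-MMP promoter-driven transcription so potencies describe inhibitors; HT1080 fibrosarcoma cells; overnight exposure; toxic or luciferase-blocking compounds were not removed from the actives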
# Hsc70 ATP site = Hsc70 inhibitors, probe displacement, primary screen, biochemical, fluorescence polarization (AID 568); Hsc70 fluorescence polarization, probe displacement; higher % means a stronger effect; strong numbers were not always called active; one-dose displacement, % at 20 µM; IC50 in µM for titrated hits; 83,000 tested, under 10 active;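 active means displacement above 50% without optical interference and an IC50 on retest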;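 further: ATPase domain with a fluorescein-tagged ATP probe; 0% = vehicle and 100% = excess ADP; read after one hour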
# WNV NS2B-NS3 inh = inhibitors of WNV NS2B-NS3 protease, primary screen, biochemical, fluorogenic substrate; 65,000 compounds, 0.18% hits; AID 577, 2007; z-score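 (tested at a level between 10 and 100 µM)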; fluorogenic substrate Ex360/Em465; stronger effect = lower value;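 active means z-score at -3 or under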;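 further: score is relative to mean and spread of the compound wells of a plate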
# Target sequence (P06935 1371-1501 limits assumed): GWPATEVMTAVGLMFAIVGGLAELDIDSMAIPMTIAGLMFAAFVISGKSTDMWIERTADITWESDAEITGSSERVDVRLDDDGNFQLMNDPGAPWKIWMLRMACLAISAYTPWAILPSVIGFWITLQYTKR
# Target sequence (P06935 1502-1679 limits assumed): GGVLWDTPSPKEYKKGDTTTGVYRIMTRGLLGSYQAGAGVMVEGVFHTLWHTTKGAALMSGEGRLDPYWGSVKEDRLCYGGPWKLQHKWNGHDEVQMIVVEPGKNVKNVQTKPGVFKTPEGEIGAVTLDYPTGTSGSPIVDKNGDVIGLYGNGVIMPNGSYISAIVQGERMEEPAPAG
# * hit, by the source's call; i = inactive; nt = no result given. Not all compounds are listed, so the mix of outcomes need not match the whole.
# Values run as follows: MT1-MMP promoter	Hsc70 ATP site	WNV NS2B-NS3 inh
[1] CCOC(=O)c1c(CN2CCC(C)CC2)oc2ccc(OC)cc12
→ i	1.9%	-0.5
[2] CC1=C(C(=O)OCc2ccccc2)C(c2ccccc2OC(F)F)NC(=O)N1 (stereo unspecified)
→ i	-1.2%	0.53
[3] CC(=O)c1c(COC(=O)c2ccco2)nc2ccccc2[n+]1[O-]
→ i	-3.7%	-1.3
[4] CCOC(=O)c1ccc(N2C(=O)C(O)=C(C(C)=O)C2c2ccccn2)cc1 (stereo unspecified)
→ i	5.0%	0.85
[5] COC(=O)C(Cc1ccccc1)NC(=O)COc1ccc(C(C)(C)C)cc1 (stereo unspecified)
→ i	1.3%	nt
[6] COc1ccc(NC(C)=O)cc1NC(=O)CSc1nnc(-c2ccc(F)cc2)n1N
→ i	-14%	1.7
[7] Cc1ccc(C(=O)Nc2nc(C)c(C)s2)o1
→ i	1.3%	nt
[8] Cc1ccc(CNc2oc(COc3ccccc3Cl)nc2C#N)cc1
→ i	-4.6%	1.5
[9] CC(C)C(OC(=O)C1CCCO1)C(=O)NC1CCCC1 (stereo unspecified)
→ i	5.1%	1.1
[10] O=C(NCCCn1ccnc1)C(=O)NCc1ccccc1
→ i	3.6%	nt
[11] O=S(=O)(c1cccc(-c2csc(-c3ccccc3)n2)c1)N1CCOCC1
→ i	-0.3%	-1
[12] CC(=O)Nc1ccc(S(=O)(=O)Nc2ccc(N3CCOCC3)c(F)c2)cc1
→ i	9.6%	-2.4
[13] Cc1ccc(S(=O)(=O)N2CCCC(c3nnc4n3-c3ccccc3SC4)C2)cc1 (stereo unspecified)
→ i	-0.7%	0.66
[14] COc1ccccc1C(=O)N1CCN(CCc2ccccc2)CC1
→ i	-6.2%	0.5
[15] COC(=O)C(CC(C)C)NC(=O)CSc1nc(-c2ccccc2)c(C#N)c(=O)[nH]1 (stereo unspecified)
→ i	2.6%	-1.3
[16] CCOc1ccccc1C(=O)NC1CC2CCCC(C1)N2Cc1nnnn1Cc1ccco1 (stereo unspecified)
→ i	4.7%	1.1
[17] Cc1ccsc1C(=O)OC1CCOC1=O (stereo unspecified)
→ i	-6.6%	0.16
[18] O=C(NCCN1CCOCC1)c1noc2c1CCc1ccccc1-2
→ i	-1.8%	-0.11
[19] CC(C)(C)OC(=O)N1CCC[C@@H]1C(=O)N1CCC(C(=O)O)CC1
→ i	0.3%	0.19
[20] COc1ccc(Nc2nc3ccccc3nc2NS(=O)(=O)c2cccs2)cc1
→ i	0.8%	nt

# 4 entries from above in another layout:
14) COc1ccccc1C(=O)N1CCN(CCc2ccccc2)CC1
  MT1-MMP promoter: i
  Hsc70 ATP site: -6.2%
  WNV NS2B-NS3 inh: 0.5

15) COC(=O)C(CC(C)C)NC(=O)CSc1nc(-c2ccccc2)c(C#N)c(=O)[nH]1 (stereo unspecified)
  MT1-MMP promoter: i
  Hsc70 ATP site: 2.6%
  WNV NS2B-NS3 inh: -1.3

16) CCOc1ccccc1C(=O)NC1CC2CCCC(C1)N2Cc1nnnn1Cc1ccco1 (stereo unspecified)
  MT1-MMP promoter: i
  Hsc70 ATP site: 4.7%
  WNV NS2B-NS3 inh: 1.1

17) Cc1ccsc1C(=O)OC1CCOC1=O (stereo unspecified)
  MT1-MMP promoter: i
  Hsc70 ATP site: -6.6%
  WNV NS2B-NS3 inh: 0.16

# Going on with the list:
# Values run as follows: MT1-MMP promoter	Hsc70 ATP site	WNV NS2B-NS3 inh
[21] O=C(c1cccc(Cl)c1)N(Cc1cccs1)C1CCS(=O)(=O)C1 (stereo unspecified)
→ i	2.4%	-1.1
[22] Cc1cc2nc(SC(C)C(=O)O)[nH]c2cc1C (stereo unspecified)
→ i	-5.9%	-1.1
[23] N#CCC(=O)N1CCn2c1nc1ccccc12
→ i	-1.6%	-0.59
[24] COc1cc2[nH]c(=S)n(NC(=O)CC(C)C)c(=O)c2cc1OC
→ i	4.5%	-0.4
[25] Clc1ccc(NC2=NCCC2)cc1Cl
→ i	-0.2%	1
[26] CC(=O)N1CCCc2cc(S(=O)(=O)N3CCC(C)CC3)ccc21
→ i	7.2%	nt
[27] CCOc1ccc(-n2c(COc3ccccc3)nnc2SCC(N)=O)cc1
→ i	-2.0%	0.72
[28] O=C(c1cccnc1)N1CCN(S(=O)(=O)c2ccc3ccccc3c2)CC1
→ i	0.4%	nt
[29] Cc1ccc(N)cc1CN1CCCC1=O
→ i	-1.4%	1.9
[30] O=C(OCC(=O)N1CCN(C(=O)c2ccco2)CC1)C1=COCCO1
→ i	1.5%	-0.6
[31] CC(=O)Oc1ccc(C(=O)Nn2cnnc2)cc1
→ i	-5.3%	nt
[32] COc1ccccc1C(c1nnnn1C(C)(C)C)N1CCCCCC1 (stereo unspecified)
→ i	-5.6%	0.34
[33] COc1ccccc1NC(=O)c1cc(S(=O)(=O)N2CCOCC2)ccc1Cl
→ i	-5.3%	0.4
[34] CC1CCN(c2nnc(N)s2)CC1
→ i	6.4%	-0.02
[35] CCOC(=O)CNC(=O)CSc1nc2ncc(Br)cc2[nH]1
→ i	-9.9%	0.82
[36] COc1ccc(N2CCN(c3oc(COc4ccc(Cl)cc4Cl)nc3C#N)CC2)cc1
→ i	-8.9%	0.02
[37] Cc1cc(C)nc(/N=C2\NC(=O)CC(C(=O)O)N2c2ccc(Oc3ccccc3)cc2)n1 (stereo unspecified)
→ i	-4.1%	-0.0078
[38] CC(=O)Nc1ccc2nc(-c3cccnc3)[nH]c2c1
→ i	-6.2%	0.93
[39] CCCCn1c(N)c(N(CCC(C)C)C(=O)COC(=O)c2ccco2)c(=O)[nH]c1=O
→ i	4.2%	-0.65
[40] COc1ccc(NC(=O)Cn2nnc(C(=O)NCc3ccccc3)c2N)cc1Cl
→ i	0.5%	-1.3

# Full records, looked up by structure. Order of screens: MT1-MMP promoter | Hsc70 ATP site | WNV NS2B-NS3 inh
# COc1ccc(N2CCN(c3oc(COc4ccc(Cl)cc4Cl)nc3C#N)CC2)cc1 is listed with i | -8.9% | 0.02
# COc1ccc(Nc2nc3ccccc3nc2NS(=O)(=O)c2cccs2)cc1 is listed with i | 0.8% | nt

# Remaining list, next part
# Values run as follows: MT1-MMP promoter	Hsc70 ATP site	WNV NS2B-NS3 inh
[41] COC(=O)c1cc(NCc2ccccc2F)ccc1N1CCOCC1
→ i	0.8%	0.09
[42] CN(C)c1nc(N)nc(CSc2n[nH]c(-c3ccccc3)n2)n1
→ i	-4.9%	-0.19
[43] CC(=O)Nc1ccc(C(=O)CSc2nnnn2C(C)C)cc1
→ i	-6.2%	-0.41
[44] Cc1ccc(SCc2[nH]nc3c2C(c2ccc(C)o2)C(C#N)=C(N)O3)cc1 (stereo unspecified)
→ i	-7.8%	0.58
[45] COCCCNC(=O)CCn1c(=O)c2ccccc2n(CC(=O)Nc2cc(Cl)ccc2C)c1=O
→ i	-13%	-0.04
[46] COC(=O)c1cc(OC)c(OC)cc1NC(=O)CCCCCN1C(=O)CCC1=O
→ i	-3.3%	-0.43
[47] CC(C)CC(c1nnnn1C(C)(C)C)N1CCN(C2CCCC2)CC1 (stereo unspecified)
→ i	-2.0%	-0.07
[48] O=C(c1ccc(-c2ccccc2)cc1)N1CCN(c2ncccn2)CC1
→ i	-3.6%	-0.27
[49] NC(=O)c1c(-c2ccccc2)oc2ccc(O)cc12
→ i	2.0%	-1.2
[50] COc1cccc2cc(C(C)=O)c(=O)oc12
→ i	-0.1%	-1.5
[51] CCn1cc(C(=O)Nc2ccc(NC(=O)c3ccco3)cc2)c(=O)c2ccc(C)nc21
→ i	-4.6%	-0.38
[52] O=S(=O)(Nc1nc(CN2CCOCC2)nc2sc3c(c12)CCCC3)c1cc(F)ccc1F
→ i	-18%	0.95
[53] CC(NC(=O)CC(O)(C(F)(F)F)C(F)(F)F)c1ccccc1 (stereo unspecified)
→ i	-3.5%	-0.42
[54] CCCc1ccc(C(C)NC(=O)c2cnccn2)cc1 (stereo unspecified)
→ i	1.6%	0.5
[55] Cn1c(=O)oc2cc(S(=O)(=O)N3CCCC3)ccc21
→ i	-6.8%	0.9
[56] O=c1c(C(c2ccccc2)c2c(O)nc3n(c2=O)CCCS3)c(O)nc2n1CCCS2
→ i	1.6%	nt
[57] Cc1ccc(S(=O)(=O)NC(C)(C)CSc2nnc(Nc3ccccc3)s2)cc1
→ i	0.2%	nt
[58] CC(=O)Nc1ccc(S(=O)(=O)Nc2nc(CN3CCOCC3)nc3sc4c(c23)CCCC4)cc1
→ i	-5.2%	nt
[59] Cn1c(=O)oc2cc(S(=O)(=O)NCCC(=O)NC3CCCc4ccccc43)ccc21 (stereo unspecified)
→ i	5.8%	-0.58
[60] Cc1ccc(OCCC(=O)OCC(=O)Nc2ccc(Cl)cn2)cc1
→ i	-2.3%	0.77

# Sorted by molecular weight (descending): part of the list above.
# Values run as follows: MT1-MMP promoter	Hsc70 ATP site	WNV NS2B-NS3 inh
[58] CC(=O)Nc1ccc(S(=O)(=O)Nc2nc(CN3CCOCC3)nc3sc4c(c23)CCCC4)cc1
→ i	-5.2%	nt
[57] Cc1ccc(S(=O)(=O)NC(C)(C)CSc2nnc(Nc3ccccc3)s2)cc1
→ i	0.2%	nt
[59] Cn1c(=O)oc2cc(S(=O)(=O)NCCC(=O)NC3CCCc4ccccc43)ccc21 (stereo unspecified)
→ i	5.8%	-0.58

# (next part)
# Values run as follows: MT1-MMP promoter	Hsc70 ATP site	WNV NS2B-NS3 inh
[61] CCn1c(Cc2ccccc2)nnc1SCC(=O)Nc1nc(C)c(C)s1
→ i	-2.6%	0.06
[62] CCc1ccccc1NC(=O)N[C@H](C(=O)O)C(C)C
→ i	0.5%	nt
[63] COc1ccc(-c2noc(-c3ccccc3C(=O)Nc3cccnc3)n2)cc1
→ i	4.7%	-0.16
[64] O=C(c1ccco1)N1CCN(C(c2ccccn2)c2nnnn2C2CCCC2)CC1 (stereo unspecified)
→ i	1.9%	0.59
[65] CCCC(=O)Nc1cccc(C(=O)Nc2nccs2)c1
→ i	1.9%	-0.48
[66] c1csc(-c2nc3nc4ccccc4nc3n2Cc2ccc3c(c2)OCO3)c1
→ i	-0.7%	0.02
[67] CN1CCN(CC(=O)Nc2sc3c(c2C#N)CCC(C(C)(C)C)C3)CC1 (stereo unspecified)
→ i	-2.7%	-0.76
[68] O=C(NC1(C(F)(F)F)C(=O)Nc2c1c(=O)[nH]c(=O)n2-c1ccccc1)c1cccnc1 (stereo unspecified)
→ i	3.0%	-0.37
[69] COc1cccc(NC(=O)c2ccccc2-c2nc(-c3ccc(F)cc3)no2)c1
→ i	-6.6%	-0.14

# Screens: PubChem, several laboratories
